# T cruzi inh = blocks replication of Trypanosoma cruzi | T. cruzi beta-gal in NIH3T3, luminescence, 90 h | inhibition, % (test concentration not listed) | actives 1.4% (n = 300,000);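 active = mean inhibition across valid replicates above about 55%, limit read from the data; inconclusive = mean below that limit but half or more replicates reach it; inactive = mean below it, under half of replicates reach it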;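 also: signal also drops with host cell toxicity which is not excluded here; 0% = plate median of DMSO wells and 100% = zero luminescence signal; higher percent means less beta-gal luminescence so fewer parasites; stock transfer was 50 nL into about 50 µL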
# Calb FLC = affects C. albicans growth with fluconazole. AID 1979. actives 0.57% (n = 300,000). C. albicans CaCi-2 (fluconazole-resistant clinical isolate) + fluconazole, Alamar Blue growth, 48 h. growth inhibition, % (no concentration beside the values);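 active = most replicates above 75%; inconclusive = exactly half above 75%; inactive = most below 75%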;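 also: all wells also contain fluconazole at 8 µg/ml as a sub-toxic cotreatment; 0% = median of DMSO wells and 100% = median of geldanamycin control wells; wells of about 8 µL received 7.5 nL stock; the first replicate is given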
# Beta cell apopt = beta cell apoptosis inhibition | INS-1E cytokine-induced death, ATP luminescence, 48 h; percent of positive-control rescue, neutral wells zero | protection from apoptosis, % (test concentration not listed) | actives 0.8% (n = 300,000);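 active = all replicates at 75% or more, or half of them and the mean; inconclusive = half reach 75% but not the mean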;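 also: 0% = cytokine-treated negative control wells and 100% = positive control rescue; higher means more ATP so stronger rescue from cytokine killing; wells of about 40 µL received 100 nL stock; the first replicate is given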
# B2AR ag = agonists of human beta-2 adrenergic receptor inducing internalization; Am2.2-beta2AR cells, FAP receptor internalization, flow cytometry; reference of the scale not given here; response, % (no concentration beside the values); actives 0.43% (n = 340,000); AID 504454;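 active = response above a set limit, near 3 SD of response in nonfluorescent compounds, cut at about 42% in these data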;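 also: stock transfer was 100 nL into about 11 µL; a reference agonist was the positive control; negative values mostly stem from fluorescent compounds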
# A1 inh = inhibitors of the anti-apoptotic protein A1, read as caspase activation; MEF A1-2A-BIM cells, Caspase-Glo 3/7 luminescence, 3 h; percent of clofoctol response, vehicle zero; caspase activation, % (no concentration beside the values); actives 0.066% (n = 330,000);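 active = over half of replicate activation scores above 10%, or exactly half above 10 with the replicate mean above 10; inconclusive = replicate mean below 10 yet half the replicates above 10; inactive = over half of replicates below 10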;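 also: wells of about 30 µL received 50 nL stock; many hits fall short of the cut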
# LANA-H2A inh = blocks KSHV LANA binding to histone H2A/H2B; inhibition, % (no concentration beside the values); Q9QR71; AID 2629; actives 0.6% (n = 320,000); cell-free LANA-H2A/H2B peptide, fluorescence polarization; in the data active = inhibition mostly above about 10%, no sharp cut-off; inactive = mostly below about 6.7%;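 also: stock transfer was 7.5 nL into about 10 µL; 0% = median of vehicle wells and 100% = median of positive control wells; one replicate is shown; the record names a cut of 25% in any replicate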
# Target sequence (Q9QR71 whole entry, looked up): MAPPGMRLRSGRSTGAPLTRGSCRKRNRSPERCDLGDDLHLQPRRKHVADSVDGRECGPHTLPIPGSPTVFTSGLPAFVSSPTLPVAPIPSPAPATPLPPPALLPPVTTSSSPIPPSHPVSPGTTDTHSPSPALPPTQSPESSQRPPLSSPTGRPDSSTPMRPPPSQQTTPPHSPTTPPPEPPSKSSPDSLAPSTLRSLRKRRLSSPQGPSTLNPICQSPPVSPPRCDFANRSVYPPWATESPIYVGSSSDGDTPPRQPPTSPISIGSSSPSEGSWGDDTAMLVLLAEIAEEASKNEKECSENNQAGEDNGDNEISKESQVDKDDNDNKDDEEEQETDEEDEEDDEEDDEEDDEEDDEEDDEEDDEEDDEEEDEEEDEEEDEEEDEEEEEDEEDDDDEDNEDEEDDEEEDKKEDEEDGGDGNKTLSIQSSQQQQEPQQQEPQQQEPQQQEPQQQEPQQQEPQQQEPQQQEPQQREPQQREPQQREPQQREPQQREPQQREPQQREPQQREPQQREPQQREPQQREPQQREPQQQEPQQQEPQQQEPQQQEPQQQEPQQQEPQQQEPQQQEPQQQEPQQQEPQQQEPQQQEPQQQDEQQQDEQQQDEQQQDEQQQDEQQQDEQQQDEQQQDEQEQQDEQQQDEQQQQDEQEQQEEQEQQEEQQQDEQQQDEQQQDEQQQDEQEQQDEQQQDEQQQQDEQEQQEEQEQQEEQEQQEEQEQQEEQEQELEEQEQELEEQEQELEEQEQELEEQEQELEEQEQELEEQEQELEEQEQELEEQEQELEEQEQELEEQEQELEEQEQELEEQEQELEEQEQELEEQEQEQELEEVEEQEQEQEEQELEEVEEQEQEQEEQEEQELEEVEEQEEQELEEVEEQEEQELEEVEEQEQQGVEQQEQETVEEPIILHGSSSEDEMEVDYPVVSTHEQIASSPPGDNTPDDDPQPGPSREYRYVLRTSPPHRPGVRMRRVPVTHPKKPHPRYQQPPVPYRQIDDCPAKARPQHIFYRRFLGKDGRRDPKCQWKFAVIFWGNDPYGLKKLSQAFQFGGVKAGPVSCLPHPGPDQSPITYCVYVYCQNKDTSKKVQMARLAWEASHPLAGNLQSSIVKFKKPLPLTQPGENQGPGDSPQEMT
# RanGTP-Imp inh = disruptors of Ran-importin-beta complex formation – biochemical, FRET, CFP-Ran, YFP-importin-beta, homogeneous, primary screen; cell-free CFP-Ran/YFP-importin-beta FRET ratio; inhibition, % (no concentration beside the values); actives 1.1% (n = 300,000); AID 2216;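 active = most replicates above 15%; inconclusive = exactly half above 15%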;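 also: 0% = DMSO wells and 100% = Ran loaded with GDP instead of GTP; wells of about 40 µL received 100 nL stock; the first replicate is given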
# UCH37 DUB inh = blocks the human deubiquitinase UCH37. Q9Y5K5. inhibition, % (concentration not given with the values). actives 0.33% (n = 330,000). purified proteasome/UCH37, Ub-AMC cleavage fluorescence;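 active = mean of two replicates above 20%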;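 also: 0% = compound-free wells with enzyme and 100% = wells lacking proteasome; stock transfer was 100 nL into about 20 µL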
#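 assay system = human UCH37 enzyme supplied as purified proteasome complex | amount = proteasome at 0.15 nM in the dispensed enzyme solution | schedule = 30 min compound-proteasome preincubation then 25 min substrate reaction, room temperature | measured by = fluorescence, ex 355 nm, em 460 nm | benchmarks = no-proteasome wells (full inhibition) and compound-free wells (no inhibition)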
# The depositor's hits bear a star; i = inactive; u = inconclusive; x = not tested or not shown; + = active, no number.
SMILES,T cruzi inh,Calb FLC,Beta cell apopt,B2AR ag,A1 inh,LANA-H2A inh,RanGTP-Imp inh,UCH37 DUB inh
N=C1C(c2nc3ccccc3s2)=C(O)CN1c1ccccc1,-12,4,3,-1,0.1,4.2,-0.8,1.4
O=C(N/N=C/C(Br)=C/c1ccccc1)c1cccnc1,-20,-6,-22,-4,-4.4,-6.4,4.6,x
O=C(NN=C1C2CC3CC(C2)CC1C3)c1ccncc1,1,-2,-3,5,1.4,-2.9,2.4,2.0
CC(C)Oc1ccc(C(=O)OCC(=O)c2ccc[nH]2)cc1,x,x,0,4,-3.3,-0.9,x,4.7
Cc1[nH]c2c(C)cccc2c(=O)c1CN1CCCCCC1,32,-3,-1,-3,1.4,9.6,-3.9,1.3
CCn1nnc(NC(=O)c2cc(Cl)c(OC)c(Cl)c2)n1,5,3,0,-5,0.8,-0.1,2.4,4.0
Cc1sc2ncnc(Sc3nnnn3-c3ccccc3)c2c1C,-1,9,4,1,0.6,2.0,7.1,-13
O=C(CN1CCN(S(=O)(=O)N2CCCCCC2)CC1)Nc1ccc(F)cc1,-18,-7,3,-6,-0.3,0.7,0.3,1.1
CCCCOC(=O)c1c(C)oc2ccc(NS(=O)(=O)c3ccc4c5c(cccc35)C(=O)N4)cc12,-23,21,-8,-10,0.1,6.0,4.6,-50
C=CCn1c(SCC(=O)Nc2ccc(N3CCOCC3)cc2)nnc1-c1ccco1,6,10,-1,5,-0.5,2.0,4.4,4.7
CC(C)(C)c1ccc(C(=O)N2CCC(NC(=O)c3ccccc3)CC2)cc1,-12,9,-5,8,-0.7,-1.3,3.8,0.8
C=CCn1sc(=N)c(C#N)c1N,-8,0,-1,-1,-1.0,-3.2,-1.2,2.4
Cc1ccc(NC(=O)COC(=O)c2ccc3c(=O)n4c(nc3c2)CCC4)c(Br)c1,x,x,1,1,0.7,i,x,-11
CCOC(=O)c1ccc(N2C(=O)CC(N3CCOCC3)C2=O)cc1 (configuration not stated),1,-3,-5,-6,1.4,1.5,-0.5,4.3
COc1ccc(-c2csc(Nc3ncccc3C)n2)cc1OC,15,7,0,6,-0.3,-0.7,-0.2,-0.7
O=C(CSc1nnc(COc2ccccc2Cl)o1)NC(=O)NCc1ccco1,1,-2,-2,0,1.3,-3.5,-0.3,5.4
O=C1c2ccccc2NC2(CCCC2)N1NS(=O)(=O)c1ccccc1,-15,37,x,-1,-0.9,-1.4,3.6,-364
Cc1ccccc1Cn1ccc(NC(=O)c2cnn3c2NC(c2ccccc2)CC3C(F)(F)F)n1 (configuration not stated),50,1,-2,14,0.4,+,u,7.0
C=CCc1c(C)nc(C)nc1N/N=C/c1ccccc1,-16,5,4,11,0.5,-3.9,0.4,x
CCOC(=O)N1CCN(C(=O)CCCCCn2c(=S)[nH]c3ccsc3c2=O)CC1,16,-5,2,-9,0.3,-7.0,-3.8,6.8
COc1ccc(-c2nc3n(n2)C(c2ccncc2)C(C(N)=O)=C(C)N3)cc1 (configuration not stated),-7,31,-6,-4,0.8,-0.7,4.6,2.3
O=C(CNC(c1ccccc1)c1ccccc1)Nc1ccccc1-c1ccccc1,24,8,4,-6,1.6,2.1,3.5,1.5
CCOC(=O)CC1C(=O)NCCN1C(=S)Nc1ccccc1 (configuration not stated),-68,-2,2,2,0.2,4.9,8.9,3.5
Cc1ccc(C2NCCS2)cc1 (configuration not stated),x,-14,2,-2,-0.4,-1.3,x,7.0
O=C(CCc1cccc(Cl)c1)NC1CCCN(Cc2ccccc2F)C1 (configuration not stated),28,6,x,-7,-0.4,-3.0,-3.7,6.4
c1ccc2c3c(cc(N4CCOCC4)c2c1)OC1(N2CCOCC2)CCCCC1O3 (configuration not stated),1,26,-4,3,0.2,9.4,-1.9,-254
O=C(CN1C(=O)CCC1=O)Nc1nc2c(F)cc(F)cc2s1,-17,-7,-4,-2,0.7,-0.4,-1.8,1.3
COc1cccc(C(=O)Nc2cccc3c2ccc2cccn23)c1,-1,19,-5,4,0.1,-2.3,-3.0,-20
COc1ccccc1NS(=O)(=O)c1ccc(C)c(C(=O)NNC(=O)c2csc(N3CCOCC3)n2)c1,x,x,0,-7,-0.5,-1.3,x,x
Cc1c(C(=O)NC2CCOC2)oc2c(F)cccc12 (configuration not stated),-11,0,-3,-5,-1.0,6.5,0.8,5.3
COc1ccc2oc(=O)c(N3C(=O)c4ccccc4C3=O)cc2c1,-5,2,-5,-7,0.8,1.3,0.8,-94
CC(=O)Nc1ccn(Cc2c(F)cccc2Cl)n1,3,0,-1,7,1.0,-4.8,-0.2,0.1
COCCNC(=O)C(C(=O)c1ccc(F)cc1)n1cc(C)ccc1=O (configuration not stated),16,20,-2,-4,-0.6,-3.8,-1.7,4.4
CCOc1ccc(-n2c(SCC(=O)Nc3ccc(C(=O)O)cc3)nc3ccccc3c2=O)cc1,-10,21,4,-1,1.2,4.9,-14,0.9
CCn1c(SCc2cccc(F)c2)nc2c(c1=O)SCC2,33,-13,-4,-8,-0.9,-0.6,4.8,5.9
CCCC(=O)Oc1ccc(C2NC(=O)c3ccccc3O2)cc1OC (configuration not stated),4,-1,-7,0,-0.2,0.9,-3.6,0.6
CCSC1=NCCN1C(=O)c1ccc(S(=O)(=O)N(CC)CC)cc1,-20,-20,-3,-1,-0.4,11,22,0.7
O=C(CSc1ccccc1)N1CCc2ccccc21,-1,-8,-11,-15,-1.2,-5.4,-0.6,1.5
Cc1cc(/C=N/NC(=O)Cn2c3ccccc3c(=O)c3ccccc32)c(C)n1-c1ccccc1,10,-10,-5,13,-0.8,-4.7,94*,x
CCOc1ccc(NC(=O)CC2NCCNC2=O)cc1 (configuration not stated),-20,4,-6,-11,0.6,0.7,0.9,-0.1
Cc1ccc(NC(=O)c2sccc2-n2cccc2)c(C)c1,6,3,-2,-4,0.4,-1.0,u,-0.4
O=C(O)c1cc(-c2ccncc2)nc2ccc(S(=O)(=O)N3CCOCC3)cc12,8,-17,-3,3,1.3,-1.2,-0.6,3.1
Cn1c(SCc2cccc(F)c2)nnc1-c1ccccn1,8,-3,-2,-17,0.3,0.1,-2.0,0.8
Brc1ccc(-c2nnc(Cc3ccccc3)o2)cc1,10,-17,-7,-14,-4.9,1.9,3.8,0.3
COc1ccc(OC)c(CN2CCN(CC(=O)Nc3ccccc3C(=O)NC3CC3)CC2)c1,x,x,-1,1,0.1,0.4,x,3.8

# Compounds shown so far containing a COOH group (two):
SMILES,T cruzi inh,Calb FLC,Beta cell apopt,B2AR ag,A1 inh,LANA-H2A inh,RanGTP-Imp inh,UCH37 DUB inh
CCOc1ccc(-n2c(SCC(=O)Nc3ccc(C(=O)O)cc3)nc3ccccc3c2=O)cc1,-10,21,4,-1,1.2,4.9,-14,0.9
O=C(O)c1cc(-c2ccncc2)nc2ccc(S(=O)(=O)N3CCOCC3)cc12,8,-17,-3,3,1.3,-1.2,-0.6,3.1

# (more compounds)
SMILES,T cruzi inh,Calb FLC,Beta cell apopt,B2AR ag,A1 inh,LANA-H2A inh,RanGTP-Imp inh,UCH37 DUB inh
N#CC(C#N)=CNc1cccnc1,-11,-9,68,-7,-1.1,1.7,2.6,6.3
CCC(=O)N1N=C(c2cccc(NS(C)(=O)=O)c2)CC1c1cccs1 (configuration not stated),-13,3,-8,6,0.3,-0.8,4.0,0.3
Cc1c(C(=O)N2CCCC2)sc(NC(=O)c2ccccc2)c1C#N,-10,9,-4,-7,0.8,-0.9,u,9.0
Cc1ccc([N+](=O)[O-])cc1N/C=C1\CCc2ccccc2C1=O,-12,6,x,7,-0.3,4.5,-3.2,5.3
C=CCSc1nnc(NC(=O)C2CC(=O)N(c3ccc4c(c3)OCCO4)C2)s1 (configuration not stated),x,x,-4,-15,0.3,0.2,x,3.2
COc1cccc(Cn2nc(C(=O)O)c3ccccc3c2=O)c1,-17,22,-4,3,0.4,-5.7,-6.0,-1.7
C=CCc1cccc(CNc2nc3ccccc3n2CCN2CCOCC2)c1O,13,-2,-1,-8,0.2,-3.0,-3.6,0.0
COc1ccc2c(CC(=O)N(C)CC3COc4ccccc4O3)coc2c1 (configuration not stated),8,5,-2,1,-1.5,-0.4,8.6,2.5
O=C(Cn1cc(C(=O)c2ccco2)c2ccccc21)NC1CC1,-16,-2,-9,-6,-1.5,-1.1,-3.8,8.9
CCN(CC(=O)Nc1c(F)cccc1F)C(=O)CNC(=O)c1cccs1,3,0,-2,6,-0.6,3.5,1.4,-0.5
C#CC1(NC(=O)NC(=O)c2c(F)cccc2F)CCCCC1,-6,-18,-5,4,-0.6,2.1,2.6,2.8
CC(C)(C)CC(=O)Nc1cc(S(=O)(=O)N2CCCCCC2)ccc1Cl,5,-1,x,-1,-0.1,-0.7,7.0,0.8
O=C(NC1CCN(S(=O)(=O)c2ccccc2)CC1)C1CCCCC1,-8,-6,x,1,0.0,3.1,0.4,-3.8
Cc1ccc2cc(C)c(SCC(=O)Nc3ccc(S(=O)(=O)N4CCCC4)cc3)nc2c1,18,-7,9,9,0.2,4.6,1.1,0.9
COc1cc(NC(=S)N2CCC(C(N)=O)CC2)cc(OC)c1,0,3,-8,0,-0.2,4.0,-2.3,3.9
O=C(NCC(=O)N1CCN(S(=O)(=O)c2ccccc2)CC1)c1ccc(Br)o1,0,-5,-5,-5,0.4,0.6,u,5.3
COc1ccc(C(=O)NCCc2c[nH]c3ccccc23)cc1[N+](=O)[O-],-10,-34,x,3,-0.2,2.1,0.4,1.4
Cc1cc(=O)oc2cc(OCC(=O)NCc3ccncc3)ccc12,x,4,-3,2,0.9,0.4,4.5,-24
COc1ccc(-c2cc(COc3ccccc3)on2)cc1,-28,-24,1,-2,-3.5,0.8,3.4,0.6
O=[N+]([O-])c1cc([N+](=O)[O-])c(Oc2cncc(Cl)c2)cc1NC1CCCCCCC1,-11,-2,5,0,0.8,6.9,-1.2,5.6
O=C(Cn1c(=O)oc2cc(S(=O)(=O)N3CCCCCC3)ccc21)NC1CCCCC1,9,1,0,20,1.2,-7.6,u,4.6
O=C(O)CCCC(=O)Nc1ccc(C(=O)N2CCCCC2)c(Cl)c1,-13,-6,0,15,1.9,-3.4,-1.8,-1.8
Cc1ncsc1CCOC(=O)C1C2CC3CC(C2)CC1C3 (configuration not stated),24,17,-3,-3,0.3,-4.7,-2.5,4.9
Cc1cccc(C(=O)c2ccccc2C(=O)O)c1O,-5,-11,-4,0,0.0,4.1,1.4,4.3
CCOc1ccc(S(=O)(=O)Nc2ccc(C(=O)N3CCC3)cc2)cc1,9,-8,-3,-3,-0.5,-1.9,-3.5,-1.4
O=C(CSc1ccc([N+](=O)[O-])cc1)Nc1ccccc1N1CCOCC1,x,x,-1,6,0.7,-3.1,x,8.1
COc1ccc(-n2cnc3cc(NS(=O)(=O)c4ccc(C)cc4)ccc32)cc1,x,x,0,1,0.2,-2.4,x,x
CCCn1c2ccc(C)cc2c2n[nH]c(=S)nc21,5,4,5,10,0.4,-5.6,0.2,2.4
CN1CCOCCOc2ccccc2OCCOCC1,6,-6,-2,5,0.9,-9.5,0.0,4.4
NC(=O)c1ccccc1NC(=O)COC(=O)CSCc1cccc(Cl)c1,x,x,-16,-2,0.3,6.0,x,0.7

# Source: PubChem (several laboratories)
